Screens (PubChem BioAssay)
StopGo reporter = lowers the luciferase signal of an FMDV 2A StopGo reporter. Potency, µM (titrated, usually from 57.9 µM), inactives show at the highest dose signal change, negative = less light. human cells with a luciferase reporter of 2A StopGo recoding; control for the full effect not named in the record. 410,000 tested, 1.2% active; active = well fitted falling curve with a large enough effect; inconclusive = small, poorly fitted or top-dose-only effect; inactive = no such curve, though single readings can be large or run the other way; tested in HEK293T cells; also: % is scaled to controls: 0 for no effect and ±100 for the full control effect; nearly all actives have a fitted effect of over 45% in size; luciferase light after 4 h
NS1 inh = influenza NS1 inhibition | S. cerevisiae slowed by influenza A NS1, growth recovery by OD600 | Potency, µM (top dose mostly 46.1 µM), inactives show top-dose activity, positive = more growth | 270,000 tested, 0.4% active; active means well fitted rising curve with a large enough effect; inconclusive means small, poorly fitted or top-dose-only effect; inactive means no such curve, though single readings can be large or run the other way; also: nearly all actives have a fitted effect of over 50% in size
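Recovery from NS1-induced slow growth read by OD600 in budding yeast switched to galactose assay medium (pH 6.0, -URA) at 1:100 dilution. Compound 23 nl per well; the matching strain lacking NS1 serves as control.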
Cruzain Triton = cruzain (T. cruzi) inhibition with detergent; purified cruzain, Z-FR-AMC fluorescence, 0.01% Triton; Potency, µM, for the others: max response, negative = inhibition, hits mostly inhibitors; 200,000 tested, 0.43% active;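 also: plate controls were neutral wells for no effect and buffer without enzyme for full effect; nearly all actives have a fitted effect of over 40% in size; top concentration of the series not given in the record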
Target sequence (P25779 123-467 limits assumed): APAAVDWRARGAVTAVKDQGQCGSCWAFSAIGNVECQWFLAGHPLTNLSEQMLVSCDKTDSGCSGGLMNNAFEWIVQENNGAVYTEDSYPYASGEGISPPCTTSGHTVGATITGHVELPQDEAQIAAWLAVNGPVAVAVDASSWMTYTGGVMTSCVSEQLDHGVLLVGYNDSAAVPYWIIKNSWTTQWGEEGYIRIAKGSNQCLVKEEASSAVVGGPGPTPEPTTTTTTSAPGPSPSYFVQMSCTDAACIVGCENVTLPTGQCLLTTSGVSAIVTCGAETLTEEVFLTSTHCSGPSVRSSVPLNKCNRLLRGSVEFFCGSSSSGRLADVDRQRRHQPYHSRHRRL
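Cysteine protease activity tested under reducing, mildly acidic conditions (100 mM sodium acetate pH 5.5, 5 mM DTT) plus 0.01% Triton X-100. Cruzain 1.5 nM; substrate Z-FR-AMC 2 uM; 15 min compound preincubation at room temperature.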
LASV entry inh = inhibitors of Lassa virus binding or cell entry; AID 540256; Lassa virus pseudotype entry inhibition, cell reporter; control for the full effect not named in the record; 300,000 tested, 1.2% active; Potency, µM (titrated, usually from 37.9 µM), for the others: at the highest dose activity change, negative = inhibition, hits mostly inhibitors; active means well fitted inhibition curve with a large enough effect; inconclusive means small, poorly fitted or top-dose-only effect, or effect the other way; inactive means flat fitted curve, though single readings scatter; tested in HEK293 cells; also: % is scaled to controls: 0 for no effect and ±100 for the full control effect; nearly all actives have a fitted effect of over 50% in size; luciferase read-out
MARV entry inh = blocks Marburg virus binding to or entry into cells. AID 540276. Potency, µM (series often up to 37.8 µM), without a hit: top-dose activity change, negative = inhibition, hits mostly inhibitors. Marburg virus pseudotyped entry inhibition, cell reporter; control for the full effect not named in the record; about a third of the inactives were read at about 46 µM. 300,000 tested, 1.8% active; active = well fitted inhibition curve with a large enough effect; inconclusive = small, poorly fitted or top-dose-only effect, or effect the other way; inactive = flat fitted curve, though single readings scatter; tested in HEK293 cells; about a fifth of its hits are not listed in these tables; also: % is scaled to controls: 0 for no effect and ±100 for the full control effect; luciferase read-out
Cruzain inh noDet = cruzain (T. cruzi) inhibition without detergent; 200,000 tested, 2.3% active; Potency, µM, without a hit: max response, negative = inhibition, actives largely listed as inhibitors; P25779; AID 1476; purified cruzain, Z-FR-AMC fluorescence, no detergent;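 also: plate controls were enzyme without inhibitor for no effect and buffer without enzyme for full effect; nearly all actives have a fitted effect of over 40% in size; top concentration of the series not given in the record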
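Purified cruzain at 1.5 nM, pre-incubated 15 min with compound at room temperature in 100 mM sodium acetate pH 5.5, 5 mM DTT, 0.00005% Triton X-100. Reaction started with 2 uM Z-FR-AMC; AMC fluorescence increase over 60 s gives rate.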
SARS PLP yeast = inhibitors of SARS-CoV papain-like protease in yeast. S. cerevisiae expressing SARS-CoV PLpro, growth rescue; control for the full effect not named in the record. Potency, µM (series often up to 32.9 µM), for the others: at the top dose activity, positive = growth rescue. 330,000 tested, 0.19% active. AID 485353; active means well fitted rising curve with a large enough effect; inconclusive means small, poorly fitted or top-dose-only effect; inactive means no such curve, though single readings can be large or run the other way; also: 0% is about no effect; nearly all actives have a fitted effect of over 55% in size; growth read by luminescence after 48 h
RE007 growth inh = less growth of the S. pombe RE007 Vpr strain | S. pombe RE007 Vpr strain, BacTiter-Glo ATP luminescence, 24 h; control for the full effect not named in the record | Potency, µM (doses to about 92.2 µM), without a hit: top-dose activity change, negative = less growth | 360,000 tested, 0.21% active; active = well fitted falling curve with a large enough effect; inconclusive = small, poorly fitted or top-dose-only effect; inactive = no such curve, though single readings can be large or run the other way;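 also: % is scaled to controls: 0 for no effect and ±100 for the full control effect; nearly all actives have a fitted effect of over 50% in size; the assay follows cell death caused by Vpr and the record does not say whether a fall means rescue or toxicity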
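Fission yeast strain RE007, carrying one chromosomally integrated HIV-1 vpr copy, was seeded at OD 0.01 in PMG+AL medium with 23 nL pinned compound. After 24 h at 30 °C and 99% humidity, viability was read by BacTiter-Glo luminescence.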
The depositor's hits bear a star; ? = inconclusive; . = not tested or not shown; & = joins results of further samples; [ ] = another dose, or the depositor's remark. Unless noted, calls follow the shape of the dose curve; as a rule, active = well fitted curve in the direction sought with a large enough effect; inconclusive = small, poorly fitted or top-dose-only effect, or another doubt; inactive = no such curve, though single readings can be large; an effect the other way counts as inactive or inconclusive. Potency is read from the fitted curve at half-maximal effect.

Below each compound – StopGo reporter	NS1 inh	Cruzain Triton	LASV entry inh	MARV entry inh	Cruzain inh noDet	SARS PLP yeast	RE007 growth inh
CCOc1ccc(CNC(=O)NS(=O)(=O)c2ccc(OC)cc2)cc1
  27%	-7%	0.4%	9%	0%	4%	6%	-1%
CCCCn1nc(NC(=O)c2cccc(Cl)c2)c2cc3ccccc3nc21
  -11%	.	-3.0%	3%[46.1 µM]	8%[46.1 µM]	-3%	.	.
O=C(O)C1CSC(c2ccccc2)N1C(=O)c1ccco1 (centres undefined)
  7%	-8%	3.3%	-4%	-17%[46.1 µM]	-3%	3%	-1%
C=C(C)CNC(=O)CCc1nnc(C2(c3ccc(Cl)cc3)CCC2)o1
  48%[activator]	-5%	.	.	.	.	0%	-3%
Cn1nnnc1SCC(=O)Nc1ccc2c(c1)OCO2
  55%[activator]	3%	.	.	.	.	0%	-13%
C[C@]12CC(=O)CC1CCC1C2CC[C@@]2(C)C1CC[C@@H]2O (some centres undefined)
  -29%	-15%	.	.	.	.	-17%	10%
CC(=O)OCCCNc1cc(Sc2ccc(C)cc2)c2nonc2c1[N+](=O)[O-]
  ?	2%	-7.8%	.	.	?	-20%	4%
Cc1nnc(N/N=C/c2cccc(C(F)(F)F)c2)n1N
  11%	-67%	.	1%	.	.	-6%	-6%
Cc1ccc(NC(=O)CSc2nnc(C)n3c2cc2sccc23)c(C)c1
  -11%	.	-0.2%	27%[46.1 µM]	.	-1%	.	.
Cn1c(N)c(C(=O)COC(=O)C2CCCN2C(=O)c2cccs2)c(=O)n(C)c1=O (centres undefined)
  -15%	5%	.	-21%	1%[14.2 µM]	.	0%	8%
O=C(O)c1cc(-c2ccc(N3CCOCC3)cc2)nn1-c1ccc(F)cc1
  -11%	2%	-1.7%	15%	25%[46.1 µM]	-4%	-10%	6%
COCCCn1c(=N)c(C(=O)NCc2ccco2)cc2c(=O)n3cccc(C)c3nc21
  -11%	.	-8.3%	19%[46.1 µM]	4%[46.1 µM]	-17%	.	.
Cc1ccc(C(C(=O)NC2CCCC2)N(Cc2cccs2)C(=O)CNC(=O)c2cccs2)o1 (centres undefined)
  -8%	-8%	2.6%	?	?	1%	-3%	21%
Cn1c(SCC(=O)c2ccc3c(c2)OCCO3)nnc1C(F)(F)F
  36%[activator]	0%	.	.	.	.	-1%	12%
COc1cc(C(C(=O)NCC2CCCO2)N(C(=O)Cn2nnc3ccccc32)c2ccc(OC)c(OC)c2)ccc1O (centres undefined)
  1%	3%	.	4%	-21%	.	-1%	3%
O=C(c1cnn2ccccc12)N1CCN(C2CCCCC2)CC1
  37%[activator]	-3%	2.7%	.	.	-1%	8%	16%
Cc1cc(C)cc(NC(=O)CCCn2c(=O)c3cccn3c3ccccc32)c1
  -14%	.	-5.7%	?	.	12%	.	.
CC(=O)[C@@H]1[C@@H]2C(=O)N(Cc3ccccc3)C(=O)[C@@H]2C2c3ccccc3C=CN21 (some centres undefined)
  8%	?	0.2%	5%	-7%	-16%	-4%	14%
CN1c2ccccc2C(C)(C)C12CC(CCl)=NO2 (centres undefined)
  ?	1%	-0.2%	?	-5%	-16%	-6%	12%
Cc1cc(=O)oc2c3c(cc(OCC(=O)NC(Cc4ccc(Cl)cc4)C(=O)O)c12)OC(C)(C)CC3 (centres undefined)
  -22%	?	.	.	.	.	-4%	13%
CO/N=C/CC(=O)c1ccc(OC)cc1
  4%	13%	.	?	?	.	0%	?
Cc1cccc(C(=O)NCC(=O)NCC2COc3ccccc3O2)c1 (centres undefined)
  -11%	.	.	-11%	-17%	.	-1%	-16%
CN1CCN(C2=Cc3ccccc3Sc3cc(F)ccc32)CC1
  -22%	-14%	-9.8%	-10%	?	-17%	-33%	26%
CC1(C)Cc2c(c(=S)nc(-c3ccccc3)n2CCCN2CCOCC2)CO1
  -6%	-5%	-3.2%	3%	2%	-21%	2%	9%
O=C1c2[nH]nc(-c3ccccc3O)c2C(c2cccc(O)c2)N1Cc1ccncc1 (centres undefined)
  7%	.	-0.3%	?	3%[46.1 µM]	1%	.	.
CCOc1ccccc1NC(=O)CC(c1ccc(F)cc1)N1Cc2ccccc2C1=O (centres undefined)
  -10%	.	-1.3%	-16%[46.1 µM]	.	-2%	.	.
O=C(CSc1nncs1)NCc1ccc2c(c1)OCO2
  26%	-1%	2.7%	1%	0%	-6%	0%	-1%
CC(C)=NNc1nc2c(c(=O)n(C)c(=O)n2C)n1CCc1ccccc1
  7%	.	.	4%	-4%[46.1 µM]	.	-2%	?
O=C(CCC(=O)N1CCN(c2ccccn2)CC1)Nc1nnc(C(F)(F)F)s1
  9%	-1%	.	-4%	?	.	1%	-14%
CN1CCC2(CC1)Nc1nc(SCc3ccc(Cl)cc3)nn1C1=C2CN(C)CC1
  -24%	-5%	0.1%	14µM*	?	0%	?	3%
COc1ccc(CCn2c(C)cc3c(c2=O)C(c2ccc4c(c2)OCO4)C(C#N)=C(N)O3)cc1OC (centres undefined)
  ?	22%	1.2%	?	-28%&-28%	18%	-2%	1%
CC1CCN(C(=O)CCCC(=O)N2CCC(C)CC2)CC1
  1%	5%	.	.	.	.	0%	0%
O=C(CSc1nc2[nH]ncc2c(=O)[nH]1)Nc1ccc(OC(F)(F)F)cc1
  -4%	.	.	16%	-4%	.	.	9%
CCCN(CC(=O)Nc1ccc(C(C)=O)cc1)CC(=O)Nc1ccccc1C
  5%	-6%	.	-10%	0%[46.1 µM]	.	1%	2%
Cc1csc(NC(=O)CSc2ncnc3ccccc23)n1
  ?	-14%	.	1%	-14%	.	2%	-8%
Cc1ccccc1Cn1c(=O)c2c(nc3n2CCCN3Cc2ccccc2)n(C)c1=O
  -27%	-53%	.	-7%	-17%&-17%	.	.	5%
Cn1nc(-c2ccccc2)c(CSc2ccccc2Cl)c1Cl
  0%	-11%	2.7%	-12%	-21%	0%	-11%	5%
COc1ccc(C(Nc2ccc(S(=O)(=O)NCC3CCCO3)cc2)C(=O)NC(C)(C)C)cc1OC (centres undefined)
  7%	-4%	.	-3%	3%[46.1 µM]	.	1%	-6%
Cc1ccc2c(c1)sc1nc(-c3cc4ccccc4oc3=O)cn12
  0.32µM*	.	0.1%	16%[46.1 µM]	.	7%	.	.
COc1ccc(NC(=S)NCCc2ccc(S(N)(=O)=O)cc2)c(OC)c1
  3%	.	.	-8%	?	.	1%	-4%

One compound at a time, as listed above. Values in the order: StopGo reporter, NS1 inh, Cruzain Triton, LASV entry inh, MARV entry inh, Cruzain inh noDet, SARS PLP yeast, RE007 growth inh
CC(C)=NNc1nc2c(c(=O)n(C)c(=O)n2C)n1CCc1ccccc1 across the screens: 7%, ., ., 4%, -4%[46.1 µM], ., -2%, ?
COCCCn1c(=N)c(C(=O)NCc2ccco2)cc2c(=O)n3cccc(C)c3nc21 across the screens: -11%, ., -8.3%, 19%[46.1 µM], 4%[46.1 µM], -17%, ., .

Continuation:
Below each compound – StopGo reporter	NS1 inh	Cruzain Triton	LASV entry inh	MARV entry inh	Cruzain inh noDet	SARS PLP yeast	RE007 growth inh
CCc1ccc(NC(=O)C2=C(C)C(=O)OC23CCCCC3)cc1
  -4%	.	-1.2%	29%[46.1 µM]	8%[46.1 µM]	-7%	.	.
CN(C)c1ccc(C(=O)OCC(=O)NCC2CCCO2)cc1 (centres undefined)
  7%	0%	0.0%	-7%	15%	-11%	1%	-1%[3.69 µM]
COc1ccc(C(CCN2CCCC(C)C2)c2c(OC)cc(OC)c3c(-c4ccccc4)cc(=O)oc23)cc1 (centres undefined)
  -4%	-3%	.	.	.	.	9%	23%
COC(=O)c1cn(NC(=O)c2cc([N+](=O)[O-])ccc2F)c(=O)c2ccccc12
  32µM*	.	.	?	?	.	1%	-18%
Cc1ccc2c(c1)/C(=C/c1ccccc1)C(=O)N2
  -28%	-50%	.	10µM*	?	.	-9%	-26%
CC(C)CN(C(=O)CSc1n[nH]c(-c2cccs2)n1)C1CCS(=O)(=O)C1 (centres undefined)
  20%	.	.	0%	-3%	.	3%	29%
Cc1cc(C)cc(-n2c(SCC(=O)N3CCCC3)nc3c([nH]c4ccccc43)c2=O)c1
  0%	.	0.9%	21%[46.1 µM]	.	0%	.	.
O=C(NC1CCCCC1)C1CC(=O)N(c2cccc([N+](=O)[O-])c2)C1 (centres undefined)
  -16%	.	.	?	10%[46.1 µM]	.	1%	1%
COc1ccc(CC(=O)NCC(=O)N/N=C/c2sccc2C)cc1
  -4%	3%	.	26%	-2%	.	20%	-11%
O=Cc1ccccc1OCCN1CCCC1=O
  -11%	2%	.	.	.	.	3%	10%
Nc1ncc(Br)cc1S(=O)(=O)NCCC(=O)NCc1ccc(F)cc1
  30%[activator]	-4%	.	10%[46.1 µM]	29%[46.1 µM]	.	8%	9%
Nc1[nH]n2c(=O)c3c(nc2c1N=Nc1ccc(Cl)cc1)CCCC3
  -28%	0%	-0.7%	10%	2%[46.1 µM]	?	-10%	4%
O=C(CN1CCCCC1)N/N=C/c1ccccc1Br
  2%	4%	.	?	1%[46.1 µM]	.	6%	-5%

Some entries already given with just MARV entry inh, Cruzain inh noDet and LASV entry inh:
smiles	MARV entry inh	Cruzain inh noDet	LASV entry inh
COC(=O)c1cn(NC(=O)c2cc([N+](=O)[O-])ccc2F)c(=O)c2ccccc12	?	.	?
Nc1[nH]n2c(=O)c3c(nc2c1N=Nc1ccc(Cl)cc1)CCCC3	2%[46.1 µM]	?	10%
